Autofluor counter: counter-screen for toxin protease inhibitors: compound fluorescence; compound autofluorescence counterscreen, microsphere flow cytometry; stronger effect = higher value; 3.1% of 360,000 active; fluorescence intensity (concentration not given with the values);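 active = at least 3 SD above the mean of all compounds, about 16000 in these data; inconclusive = too few beads counted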;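 note: 100 nL of 1 mM stock went into each well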
Sa ugtP lethal: growth inhibition of S. aureus ugtP deletion strain; S. aureus RN4220 ugtP deletion, OD600 growth, 16 h; some inactives read as strong as hits; growth inhibition, % (test concentration not listed); 0.54% of 330,000 active; AID 1259309;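 active = z-score under -3 and OD600 up to 0.15 on both plates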;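 note: plate controls were untreated wells for no effect and antibiotic for full effect; wells of about 80 µL received 100 nL stock; the first replicate is given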
PrP 5UTR inh: inhibition of PrP 5' UTR reporter expression | cell-based PrP 5' UTR mRNA reporter, plate reader | inhibition, % (test concentration not listed) | 0.35% of 340,000 active;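 active = every replicate at 50% or more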;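 note: 0 = median of the neutral control wells; tested in H4 reporter cells; numbers are from one replicate; inactives centre near -14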
Mtb hypoxia inh: Mtb hypoxia fluorescent reporter inhibition. fluorescence inhibition, % (test concentration not listed). M. tuberculosis hypoxia-regulated fluorescent reporter, fluorescence. 0.1% of 300,000 active;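 active = 35 to 45% if threefold the growth effect, above 45% if 1.5-fold the growth effect; inactive = the rest, general growth blockers included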;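 note: wells of about 50 µL received 100 nL stock; 0% = vehicle wells and 100% = reference inhibitor wells; whole bacteria with a GFP reporter of the hypoxia response; strong numbers were not always called active; many hits fall short of the cut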
Sa RN4220 lethal: kills Staphylococcus aureus RN4220 | AID 1259311 | S. aureus RN4220 growth, OD600, 16 h | 0.33% of 330,000 active | inhibition, % (concentration not given with the values);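 active = z-score of -3 or lower and OD600 up to 0.18 on both plates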;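 note: plate controls were untreated cells for no effect and reference antibiotic for full effect; stock transfer was 100 nL into about 80 µL; one replicate is shown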
BJeLR viability: BJeLR cell viability loss; inhibition, % (concentration not given with the values); BJeLR (HRASV12) viability, CellTiter-Glo ATP luminescence, 48 h; reference of the scale not given here; 0.17% of 300,000 active;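 active = replicate mean above 50%; inconclusive = above 50% but judged a plate artefact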;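 note: 50 nL library stock added to about 25 µL; numbers are from one replicate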
Mtb hypoxia inh growth: further read-out of Mtb hypoxia inh, marked with its call; growth inhibition, %; measured here: M. tuberculosis growth (absorbance);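 0% = vehicle and 100% = reference antibiotic; read after six days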
The depositor's hits bear a star; ? = inconclusive; · = no result given.

SMILES	Autofluor counter	Sa ugtP lethal	PrP 5UTR inh	Mtb hypoxia inh	Mtb hypoxia inh growth	Sa RN4220 lethal	BJeLR viability
CC(CC(=O)Nc1cc(C)ccn1)=NNC(=O)C(=O)Nc1cccc(C)c1	·	5	·	8	10	0.8	·
Cc1ccc(NC(=O)CSc2n[nH]c(-c3ccco3)n2)c(C)c1	4322	6	-12	3	16	17	1
CCOc1ccc(NC(=O)Nc2ccc(NC(C)=O)cc2)cc1	2498	3	-23	2	-1	5.1	5
Cc1ccccc1NC(=O)COC(=O)C1(C)CC1(Cl)Cl (stereo not given)	3232	5	-11	13	3	6.7	6
CNc1ncc(C(=O)c2ccc(Br)cc2)s1	2266	8	-56	1	4	13	2
COc1cccc(C(=O)Nc2nnc(CCS(=O)(=O)c3ccc(C)cc3)s2)c1	6239	8	-4	8	9	-1.6	-2
Cc1cc(NC(=O)NC(C(F)(F)F)C(F)(F)F)no1	4047	4	-18	13	14	4.5	-5
O=C(c1cccc(NS(=O)(=O)c2cccc(F)c2)c1)N1CCCC1	6322	4	-5	7	9	4.8	-1
Cc1ccc(NC(=S)Nc2cc(C(=O)O)ccc2N2CC3CC(C2)c2cccc(=O)n2C3)cc1C (stereo not given)	3566	8	-34	10	0	7.6	-4
Cc1cn(Cc2ccccc2)c(=O)[nH]c1=O	12594	-7	-18	-12	-2	-4.2	-5
Cc1cc(-c2csc(NC(=O)c3ccc(=O)n(C)n3)n2)c(C)n1CC1CCCO1 (stereo not given)	3322	-15	-11	6	13	13	3
COC(=O)Cc1ccc(NC(=S)NCc2ccc(F)cc2)cc1	8638	·	-15	·	·	·	-1
O=c1[nH]c(Cc2cccs2)nc2scc(-c3ccc(Cl)cc3)c12	5071	-1	-45	12	4	-7.0	-8
O=C(N/N=C/c1ccncc1)c1ccc(NC(=O)c2ccc(Cl)cc2)cc1	2213	·	-31	·	·	·	-1
C=CCn1c(SCC(=O)N2N=C(c3ccco3)CC2c2ccco2)nnc1-c1ccncc1 (stereo not given)	2507	4	-14	4	5	5.1	3
O=C(Nc1ccc(S(=O)(=O)N2CCOCC2)cc1)c1ccc(Cl)cc1	4377	4	-19	4	5	-2.3	-1
Cc1ccc2c(CC(=O)OC3CCOC3=O)coc2c1 (stereo not given)	7170	11	-6	6	-3	2.5	4
CC(=O)N1c2ccc(S(=O)(=O)N3CCC(C(=O)NC(C)c4ccccc4)CC3)cc2CC1C (stereo not given)	6147	5	-53	4	11	1.3	5
CCN1CCC(NC(=O)Nc2ccc(F)cc2F)CC1	2627	8	-5	3	8	2.4	8
COc1cccc(C(=O)NCC(=O)NN=Cc2c(C)[nH]c3ccccc23)c1	·	7	·	5	-7	4.1	·
Cc1cc([N+](=O)[O-])c(C)cc1-c1ccc(C=NNC(=O)Cn2nnnc2N)o1	·	-6	·	5	4	7.3	·
CC1CCCC(NC(=O)c2ccc(CNc3c(N4CCCC4)c(=O)c3=O)cc2)C1C (stereo not given)	4432	6	-15	3	6	-1.2	0
Cc1cc(NC(=O)CCC(=O)N(CC(=O)NCC2CCCO2)c2cccc(F)c2)no1 (stereo not given)	6022	2	-7	8	7	6.4	1
COc1cccc(-c2c(NC(=O)c3ccco3)oc3ccccc3c2=O)c1	5556	-15	-22	·	·	2.9	3
Cc1ccccc1NC(=S)NC(NC(=O)c1ccccc1C)C(Cl)(Cl)Cl (stereo not given)	4042	-6	-13	-3	1	-8.5	0

Of the compounds above, these have fluorine:
SMILES	Autofluor counter	Sa ugtP lethal	PrP 5UTR inh	Mtb hypoxia inh	Mtb hypoxia inh growth	Sa RN4220 lethal	BJeLR viability
Cc1cc(NC(=O)NC(C(F)(F)F)C(F)(F)F)no1	4047	4	-18	13	14	4.5	-5
O=C(c1cccc(NS(=O)(=O)c2cccc(F)c2)c1)N1CCCC1	6322	4	-5	7	9	4.8	-1
COC(=O)Cc1ccc(NC(=S)NCc2ccc(F)cc2)cc1	8638	·	-15	·	·	·	-1
CCN1CCC(NC(=O)Nc2ccc(F)cc2F)CC1	2627	8	-5	3	8	2.4	8
Cc1cc(NC(=O)CCC(=O)N(CC(=O)NCC2CCCO2)c2cccc(F)c2)no1 (stereo not given)	6022	2	-7	8	7	6.4	1

Only Mtb hypoxia inh (three entries from above):
Molecule	Mtb hypoxia inh
CC(CC(=O)Nc1cc(C)ccn1)=NNC(=O)C(=O)Nc1cccc(C)c1	8
Cc1ccc(NC(=O)CSc2n[nH]c(-c3ccco3)n2)c(C)c1	3
CCOc1ccc(NC(=O)Nc2ccc(NC(C)=O)cc2)cc1	2

Taken from above.
Autofluor counter with `Cc1ccc2c(CC(=O)OC3CCOC3=O)coc2c1` (stereo not given) reads 7170
Autofluor counter with `O=C(N/N=C/c1ccncc1)c1ccc(NC(=O)c2ccc(Cl)cc2)cc1` reads 2213

The listing continues:
SMILES	Autofluor counter	Sa ugtP lethal	PrP 5UTR inh	Mtb hypoxia inh	Mtb hypoxia inh growth	Sa RN4220 lethal	BJeLR viability
CC(C)C12CCC(C(=O)O)C(C1)C(=O)O2 (stereo not given)	3279	-2	-11	5	8	2.8	8
CC(=O)c1ccc(NC(=O)CSc2nccn2C)cc1	5809	0	-28	13	0	1.9	-9
CC1CC(C)CN(CCCNC(=O)C2CCN(S(=O)(=O)N3CCCCC3)CC2)C1 (stereo not given)	5659	9	-15	7	7	1.2	8
CC1=NN(c2ccc(C(=O)O)cc2)C(=O)/C1=C/c1ccc(-c2ccccc2F)o1	3625	·	-14	·	·	·	-7
Cc1ccc(C(=O)/C=C/c2ccc(Br)cc2)o1	3934	-1	-7	20	17	8.5	-7
CCCN1CCc2c(sc(NC(=O)CCS(=O)(=O)c3ccccc3)c2C(=O)OC)C1	5932	4	2	7	6	5.2	6
O=C1CCC=CCC(CC(=O)N(CCO)Cc2ccccc2)C(=O)N2CCCC2CO1 (stereo not given)	·	-11	·	7	3	1.1	·
COC(=O)c1ccsc1NC(=O)CN1CCN(c2ncccn2)CC1	·	7	-9	-1	4	1.5	4
O=C(O/N=C1\CCCCC1c1ccc([N+](=O)[O-])cc1[N+](=O)[O-])c1c(F)cccc1F (stereo not given)	10640	·	-12	·	·	·	-8
COc1ccccc1Nc1nc(NCc2ccco2)c2ccccc2n1	4079	-33	·	-7	6	-4.9	5
O=C(NCc1ccco1)c1csc2c1CCCCC2	9340	12	-16	·	·	8.4	-6
CC(C)c1ccc(C(=O)NNC(=O)c2n[nH]c(=O)c3ccccc23)cc1	3849	-3	-10	3	2	-0.2	·
O=C(COC(=O)CCc1ccc(S(=O)(=O)N2CCOCC2)cc1)NCc1ccccc1	4419	4	-22	11	16	4.7	5
CCOc1ccc(S(=O)(=O)N2CCN(C(=O)c3cc(-c4ccccc4)nn3-c3ccccc3)CC2)cc1	·	4	-22	-5	-4	-1.4	11
O=C(CN1CCN(S(=O)(=O)c2ccc(Cl)cc2)CC1)c1ccc(O)c(O)c1	4655	-7	9	3	-9	-3.6	-11
Cc1ccc(CSCCNC(=O)c2ccccc2)cc1	2007	-2	-36	12	8	1.5	3
CCc1c(C)nc(SCC(=O)N2CCN(c3ccccc3OC)CC2)[nH]c1=O	4408	7	-26	-2	3	4.6	-3
CCc1cccc(C)c1N(C(=O)Cn1c(=O)[nH]c2ccccc21)C(C)COC (stereo not given)	4840	-11	-18	·	·	5.6	8
CCCCN(CC)CCCNC(=O)Cn1nc(Cc2cccnc2)c2ccccc2c1=O	6531	1	-6	-3	-7	0.5	1
CCCCCC(O)C=CC1C2CC(CO2)C1CC=CCCCC(=O)O (stereo not given)	·	-11	·	-3	-6	4.2	·
O=C(CN1CCN(CCOCCO)CC1)N1c2ccccc2Sc2ccc(Cl)cc21	4611	7	-11	·	·	2.2	-4
S=c1[nH]ncn1N=Cc1ccc(N2CCOCC2)cc1	·	1	·	7	6	1.1	·
COc1ccc(Cl)cc1C(=O)O/N=C(\N)c1ccc(Cl)cc1	9176	-10	-43	1	0	-3.0	-2
COc1ccc(OCC(=O)Nc2ccc(N3CCN(C(=O)c4ccccc4C)CC3)cc2)cc1	2065	1	-13	-10	3	0.5	-6
CCOC(=O)c1ccc(NC(=S)NC2CC(C)(C)NC(C)(C)C2)cc1	11070	-14	12	0	12	0.5	·

(further entries)
SMILES	Autofluor counter	Sa ugtP lethal	PrP 5UTR inh	Mtb hypoxia inh	Mtb hypoxia inh growth	Sa RN4220 lethal	BJeLR viability
Cc1[nH]c(C)c(S(=O)(=O)Nc2cccc(Cl)c2C)c1C(=O)N1CCCC1	6184	-4	-13	-5	2	-2.6	2
O=C(CN1CCN(c2ccc(Cl)cc2)CC1)Nc1ccc(F)cc1	4266	-5	4	-7	-10	1.9	-2
CC(=NNC(N)=O)c1cccc(Cl)c1	·	3	·	5	4	5.1	·
O=C(Cc1ccccc1)NCC(=O)Nc1cc(Cl)ccc1Cl	5124	2	-32	12	4	2.6	-4
COc1ccccc1Nc1nc(-c2c(C)nc3ncccn23)cs1	3614	3	-18	10	4	9.7	17
Cc1ccc2c(c1)N(C(=O)CCC(=O)NC1CCN(Cc3ccccc3)CC1)CC(C)O2 (stereo not given)	5268	8	-14	3	2	7.9	2
Cn1c(=O)c2c(ncn2CC(=O)N/N=C/C=C/c2ccco2)n(C)c1=O	3383	·	-4	·	·	·	-13
Cc1ccc(-n2ncc(C(=O)N3CCc4ccccc4C3)c2NC(=O)c2ccco2)cc1C	23443*	15	1	1	4	8.3	11
N#CC(=C1CCCC1)c1nc(-c2ccccc2)cs1	2545	7	-138	11	10	9.6	-10
CCOc1ccc(C(=O)NC(=S)Nc2ccc(NC(=O)CC)cc2)cc1[N+](=O)[O-]	2455	-2	-6	-5	7	3.8	-4
CC(C)(C)NC(=O)C(c1ccc(F)cc1)N(CC1CCCO1)C(=O)CCC(=O)Nc1ccccn1 (stereo not given)	3676	3	-6	-12	0	-4.9	1
CCOc1ccc(CN(C)C(=O)c2cccnc2OCC)cc1OC	4424	5	-24	10	8	2.1	-1
CC(=NNC(=O)c1ccccc1)C(=NO)C(=O)Nc1ccccc1	·	10	·	2	16	0.9	·
CC1CC(C)CN(CC(C)(C)NS(=O)(=O)c2ccccc2)C1 (stereo not given)	6489	18	-17	-5	-1	4.0	-10
O=[N+]([O-])c1ccc(CC(Cl)c2ccccn2)cc1 (stereo not given)	3925	3	-20	6	5	3.2	·
COC(=O)c1ccc(COc2ccc3ccc(=O)oc3c2)o1	3619	5	-5	-10	1	-1.1	4
CCOc1ccc(N2CC(C(=O)NCCN3C(=O)S/C(=C\c4ccc(OC)cc4)C3=O)CC2=O)cc1 (stereo not given)	2403	9	-1	2	-7	3.5	-8
O=C1C2CCCN2C(c2ccccc2)N1c1cccc(Cl)c1 (stereo not given)	5737	-8	-23	·	·	3.2	-5
Cc1cc(C(=O)COC(=O)c2ccc[nH]c2=O)c(C)n1-c1ccc(Br)cc1	2070	16	-35	2	6	10	-5
CCOc1ccc(NC(=O)C(C)NS(=O)(=O)c2ccc(NC(C)=O)cc2)cc1 (stereo not given)	4099	3	-16	-3	2	1.3	0
O=C(NC1CCSc2ccccc21)c1c(F)cccc1Cl (stereo not given)	5458	10	-21	-1	7	13	12
COc1cc(OC)cc(OC(=O)c2cccc(S(=O)(=O)N3CCN(C)CC3)c2)c1	?	9	-11	-5	-5	2.9	-3
CCOC(=O)c1ccccc1NS(=O)(=O)c1ccc(S(=O)(=O)N2CCCC2)cc1	8827	-17	-6	-3	4	16	-11

4 structures already listed, sorted by length of the SMILES, lowest first:
SMILES	Autofluor counter	Sa ugtP lethal	PrP 5UTR inh	Mtb hypoxia inh	Mtb hypoxia inh growth	Sa RN4220 lethal	BJeLR viability
O=C(Cc1ccccc1)NCC(=O)Nc1cc(Cl)ccc1Cl	5124	2	-32	12	4	2.6	-4
CC1CC(C)CN(CC(C)(C)NS(=O)(=O)c2ccccc2)C1 (stereo not given)	6489	18	-17	-5	-1	4.0	-10
Cc1cc(C(=O)COC(=O)c2ccc[nH]c2=O)c(C)n1-c1ccc(Br)cc1	2070	16	-35	2	6	10	-5
Cc1ccc2c(c1)N(C(=O)CCC(=O)NC1CCN(Cc3ccccc3)CC1)CC(C)O2 (stereo not given)	5268	8	-14	3	2	7.9	2
